Ba CapD inh: inhibitors of Bacillus anthracis CapD enzyme; z-score (test concentration not listed); 140,000 compounds, 0.23% hits; purified CapD enzyme, fluorescence intensity read-out; stronger effect = lower value; some hits fall short of the stated cut;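 active means z-score under -4 in either of two replicates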;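 further: stock transfer was 100 nL into about 40 µL; score is relative to mean and spread of the plate; one replicate is shown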
AID504770: growth inhibitors of E. coli YBA685 in a screen for V. cholerae RctB (chromosome II replication) inhibitors; E. coli YBA685 rctB-dependent plasmid, OD600 growth, 3 h; stronger effect = lower value; z-score (test concentration not listed); 130,000 compounds, 0.27% hits; AID 504770;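 active means z-score under -2 on both plates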;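 further: wells of about 30 µL received 100 nL stock; score is relative to mean and SD of the test wells; the first replicate is given; strong numbers were not always called active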
The depositor's hits bear a star; · = no result given.

molecule | Ba CapD inh | AID504770
O=C(OCCN1C(=O)c2cccc3c(N4CCCCC4)ccc(c23)C1=O)c1cc([N+](=O)[O-])cc([N+](=O)[O-])c1 | 0.77 | ·
NC(=O)NS(=O)(=O)c1ccc(N)cc1 | 0.02 | 0.1
CC1CCN(C(=O)COC(=O)c2cccs2)CC1 | -0.26 | -0.15
COc1cccc(C(=O)NCc2ccc3c(c2)cc(C)n3C)c1 | · | 1.3
C=CCc1cccc(Cl)c1OCCNCc1ccco1 | 0.81 | -0.75
Cc1c(C(=O)/C=C/N(C)C)nnn1-c1ccc(Cl)cc1C#N | 0.06 | -0.45
Cc1cc(C)c2c(-n3cccc3)c(C(=O)N(C)Cc3ccccc3)sc2n1 | -1.11 | -0.4
O=C1C(c2ccccc2)C(c2cccc([N+](=O)[O-])c2)NC(c2cccc([N+](=O)[O-])c2)C1c1ccccc1 (configuration not stated) | 0.17 | ·
CCN1CCCC1CNC(=O)OCc1ccc(C(C)(C)C)cc1 (configuration not stated) | -0.77 | ·
COC(=O)c1cc(=O)n(Cc2cccs2)c(=Nc2ccccc2)s1 | -0.975 | 0.4
COc1cc(/C=C/C(=O)NC23CC4CC(CC(C4)C2)C3)cc(OC)c1OC | 6.78 | 1.95
Cc1c(NC(=O)Nc2ccccn2)sc2nc3n(c(=O)c12)CCC(C)CC3 (configuration not stated) | -0.17 | 0.75
COCC(C)n1c(-c2cccs2)csc1=Nc1cccnc1 (configuration not stated) | · | -0.4
Clc1ccc(Cn2ccc3ccccc32)cn1 | -0.035 | 0
CCOC(CN(C(=O)c1ccc([N+](=O)[O-])cc1)c1ccc(F)cc1)OCC | -0.255 | ·
COc1cc(OC)c(OC)cc1/C=C1\N=C(c2cc(OC)c(OC)c(OC)c2)OC1=O | -0.71 | ·
O=C1NC(=O)C2C1C(c1ccco1)NN2Cc1ccccc1 (configuration not stated) | -1.02 | 1.6
Cc1ccc(NC(=O)Cn2c(=O)n3nc(C)nc3c3ccccc32)cc1 | · | 0.6
N#Cc1ccc(COC(=O)c2ccccc2)cc1 | -0.27 | -0.65
CCCOC(=O)C1C2C=CC3(CN(CC4CCCO4)C(=O)C13)O2 (configuration not stated) | 0.335 | -0.4
COc1ccc(C2N(c3ccccc3)CCN2c2ccccc2)cc1 | 0.08 | ·
CCC(CC)C(=O)Nc1cccc(C(=O)NCc2ccco2)c1 | 0.02 | 1.8
COc1ccc(-n2ncc(NC(=O)NCc3ccccn3)c2C)cc1 | -0.17 | 1.6
N#CC(C#N)=Cc1ccc(-c2cccs2)s1 | 5.74 | -0.95
COCCN(C1CCN(C)CC1)S(=O)(=O)c1ccc(N)cc1 | -0.705 | ·
CN1C(C)(C)CC(NC(=O)c2ccco2)CC1(C)C | -1.35 | 1
c1ccc2c(-c3csc(-c4ccc(-c5ccno5)s4)n3)csc2c1 | 24.7 | 0.1
Cc1cccc(Cn2ccn(Cc3ccccc3)c(=O)c2=O)c1 | -0.5 | 0.7
Cc1ccc(CSc2nc3ccccc3[nH]2)cc1 | -0.075 | ·
COC(=O)c1ccccc1NC(=O)c1c(C)nn(-c2ccccc2)c1-n1cccc1 | -0.63 | -0.05
COc1ccc(Br)cc1C(=O)NCc1cccnc1 | 0.195 | -0.45
FC(F)(F)c1cccc(Sc2nccc(-c3ccc(Cl)cc3)n2)c1 | -0.69 | ·
O=C(/C=C/c1ccccc1)NCCO | -0.43 | 1.25
CCCc1cc2c(-c3ccccc3)cc(=O)oc2cc1OC(C)=O | 2.05 | -0.15
c1ccc(Cn2nnnc2C(c2ccccc2)N2CCN(Cc3ccncc3)CC2)cc1 (configuration not stated) | · | -0.25
O=C(Nc1cc2ccccc2oc1=O)c1ccccc1 | 0.7 | -0.25
COc1cc([N+](=O)[O-])ccc1NC(=O)Cn1c2ccccc2c(=O)c2cc(C)ccc21 | 0.93 | ·
O=C(OCCN1C(=O)c2ccccc2C1=O)c1ccc(-n2cnnn2)cc1 | · | 0.15
Cn1c(SCc2nnc(-c3ccc(Cl)cc3)o2)nc2sccc2c1=O | · | 0.05
Cc1cc2nc(N3CCCC3C(N)=O)c3ccccc3n2n1 (configuration not stated) | · | 0.45
CC1CCCCN1C(=O)Cn1cc(C(=O)c2ccccc2)c2ccccc21 (configuration not stated) | 0.115 | -0.75
O=C(Sc1n[nH]c(C(F)(F)F)n1)c1ccc(C#Cc2ccccc2)o1 | 0.265 | 0.25
O=[N+]([O-])c1cc(/C=N/N2CCOCC2)cs1 | 0.215 | ·
Cn1c(=O)c(C(=O)NCCCc2ccccc2)cc2cccnc21 | · | -0.25
COc1ccc2cc(CCNC(=O)COc3ccccc3)c(=O)[nH]c2c1 | 1.94 | 2.7
CCOC(=O)c1cnn(-c2nc(-c3ccccc3)cs2)c1C(F)(F)F | 13 | -0.75
COc1cccc2cc(-c3csc(NC(=O)CCC(=O)N4CCC(C(N)=O)CC4)n3)c(=O)oc12 | 1.64 | ·
CCn1c(=S)sc2c(=O)n(-c3ccccc3)c(SCC(=O)NCc3ccco3)nc21 | -0.015 | ·
COC(=O)C(Cc1csc2ccc(Cl)cc12)NC(=O)c1ccccc1 (configuration not stated) | -0.02 | -0.35
CCC(CC)C(=O)c1c(O)c2ccccc2oc1=O | -0.42 | -0.2
COc1cccc(NC(=O)Cn2c(=O)n(C(C)C)c(=O)c3oc4ccccc4c32)c1 | 0.58 | -0.45
Cc1cc(=O)c2nncn2[nH]1 | 0.11 | -0.75
CSc1n[nH]c(-c2cccc(Cl)c2)c1C#N | 2.55 | -0.75
O=C(Cn1c(=O)sc2ccccc21)NCc1ccccn1 | -0.175 | 0
Cc1ccccc1-n1c(O)c(C=NCC2CCCO2)c(=O)[nH]c1=S (configuration not stated) | -3.45 | -0.05
CCC1CCCCN1C(=O)COC(=O)c1cccs1 (configuration not stated) | · | 0.8
CNC(=O)COC(=O)CN1C(=O)c2ccccc2C1=O | · | -0.05
O=C1c2c(Cl)c(Cl)c(Cl)c(Cl)c2C(=O)N1C1C(=O)N(c2ccc(Cl)c(Cl)c2)C1c1cccs1 (configuration not stated) | -0.675 | ·
COC(=O)c1ccc(-c2nc(-c3cccs3)no2)cc1 | 0.005 | 0.05
O=C(NCCCN1CCCC1=O)c1ccc2c(=O)n(-c3cccc(C(F)(F)F)c3)c(=S)[nH]c2c1 | 0.665 | ·

Additional records
molecule | Ba CapD inh | AID504770
Cc1cccc(C(CC(=O)NCc2cccs2)n2cccc2)c1 (configuration not stated) | -0.655 | 0.2
COC(=O)c1ccc(COC(=O)c2cc3c(s2)CCC(C)C3)o1 (configuration not stated) | · | 0.55
CCOc1ccc(-c2nnc3ccc(SC)nn23)cc1 | 0.75 | -0.7
CC1(NC(=O)Cc2n[nH]c(=O)c3ccccc23)CCS(=O)(=O)C1 (configuration not stated) | · | -0.85
CCCCc1c(O)c2cnn(-c3ccccc3)c2[nH]c1=O | -0.8 | -0.05
CC(C)c1ccc(C2OC3(C(=O)c4ccccc4C3=O)C3C(=O)N(c4ccc(F)cc4)C(=O)C23)cc1 (configuration not stated) | -0.14 | ·
CC(C)NC(=O)CCc1nnc2ccc(N3CCCC3)nn12 | 0.335 | 0.2
CCc1ccc(NC(=O)c2cc3cc4ccc(C)cc4nc3o2)cc1 | 0.02 | -0.1
O=C(CN1CCCc2ccccc21)NC(=O)NC1CCCCC1 | · | -0.55
O=C(C1CC1)N1CCN(CN2C(=O)NC(Cc3ccccc3)(Cc3ccccc3)C2=O)CC1 | · | -3.8
COC(=O)c1sccc1NC(=O)c1cc(S(=O)(=O)C(C)C)c(SC)s1 | 0.73 | -0.75
O=C(CCCCn1c(=O)[nH]c2ccsc2c1=O)NCc1cccnc1 | 0.07 | 1.85
O=C(c1ccc(COc2c(F)c(F)cc(F)c2F)o1)N1CCN(c2ccc(Cl)cc2)CC1 | -0.385 | 0.9
CCCCn1c(NCc2cccs2)nc2ccccc21 | 0.78 | 1.15
COc1ccc(C(=O)NC(=S)Nc2ccc(NC(=O)c3ccco3)cc2)cc1Cl | -0.185 | -0.15
NN1CC(=O)N(c2ccc(Cl)cc2)CC1=O | 0.115 | -0.7
COC(=O)N/N=C/c1ccc(C(C)C)cc1 | · | 0.55
CCOC(=O)c1cc2sccc2n1CC(=O)NC1CCC(C)CC1 (configuration not stated) | · | 1.25
Cc1ccc2cc(CCNC(=O)c3cc4ccccc4oc3=O)c(=O)[nH]c2c1C | 0.355 | -0.4
CCS(=O)(=O)c1nnnn1-c1ccccc1S(C)(=O)=O | 0.2 | -0.35
CCNC(=S)NCCc1ccc(Cl)cc1 | · | -0.65
CCOc1ccc(-n2c(C)nc3cc(C(=O)NC4CC4)ccc32)cc1 | 0.945 | 0.05
CC(=O)Nc1ccc2c(c1)ncn2C1CCCCC1 | -0.045 | -0.05
O=C(NC1Cc2ccccc2C1)c1ccc2c(c1)OCCCO2 | -1.22 | -0.65
COc1ccc(NC(=O)C2CCN(C(=O)c3cccc(OC)c3)CC2)cc1 | 0.06 | 0.3
COc1ccc(CN(C)c2nn(C)c(=O)n(C)c2=O)cc1OC | · | -0.65
COc1ccc2[nH]c3c(c2c1)CCN=C3C | 0.27 | ·
Cc1oc(-c2ccccc2)nc1Cn1cccc1C1=NC(c2ccccc2)CO1 (configuration not stated) | -0.235 | -0.65
CCCCNC(=O)Cc1csc(-c2ccccc2)n1 | -0.04 | 0.55
COc1ccc(N2CCN(S(=O)(=O)/C=C/c3ccccc3)CC2)cc1 | -0.475 | 0.9

Compounds listed so far with two or more sulfur atoms:
molecule | Ba CapD inh | AID504770
COC(=O)c1cc(=O)n(Cc2cccs2)c(=Nc2ccccc2)s1 | -0.975 | 0.4
COCC(C)n1c(-c2cccs2)csc1=Nc1cccnc1 (configuration not stated) | · | -0.4
N#CC(C#N)=Cc1ccc(-c2cccs2)s1 | 5.74 | -0.95
c1ccc2c(-c3csc(-c4ccc(-c5ccno5)s4)n3)csc2c1 | 24.7 | 0.1
Cn1c(SCc2nnc(-c3ccc(Cl)cc3)o2)nc2sccc2c1=O | · | 0.05
CCn1c(=S)sc2c(=O)n(-c3ccccc3)c(SCC(=O)NCc3ccco3)nc21 | -0.015 | ·
COC(=O)c1sccc1NC(=O)c1cc(S(=O)(=O)C(C)C)c(SC)s1 | 0.73 | -0.75
CCS(=O)(=O)c1nnnn1-c1ccccc1S(C)(=O)=O | 0.2 | -0.35

Further entries
molecule | Ba CapD inh | AID504770
O=C(COC(=O)/C=C/c1ccccc1)NC1CCS(=O)(=O)C1 (configuration not stated) | · | -0.2
CNC(=O)c1cccc2c1-c1ccccc1C2=O | -0.89 | -1
O=C(Cn1nc(Cc2cccnc2)c2ccccc2c1=O)Nc1cccnc1 | 0.44 | 0.25
CC1(C)CC2(CC(c3ccccc3)Oc3cc(O)ccc32)NC(=O)N1 (configuration not stated) | -0.285 | ·
CN(C)c1ccc(NC(=O)c2cc(C(F)(F)F)cc(C(F)(F)F)c2)cc1 | -0.08 | 0.35
N#CC1=C(SCC(=O)Nc2ccc(F)cc2)NC(=O)C(C#N)C12CCCCC2 (configuration not stated) | 0.18 | -0.85
CC(C)CCn1nnnc1CN1CCN(C(=O)c2ccco2)CC1 | · | -0.4
COC(=O)c1c(C)[nH]c(C)c1/C=N/OC(=O)c1cccs1 | 3.31 | -0.1
CC(C)CNC(=O)c1cc2n(n1)C(C(F)(F)F)CC(c1ccco1)N2 (configuration not stated) | -0.99 | 0.15
S=c1[nH]nc(Cc2ccccc2)n1C1CCCCC1 | -1.52 | -0.85
O=C(CSc1ccccc1)Nc1ccc2c(c1)OCO2 | · | -0.15
O=S(=O)(Cc1nc(COc2c(Cl)cccc2Cl)no1)c1ccc(Cl)cc1 | -0.94 | 1.7
O=C(CSc1nnc2sc3ccccc3n12)N1CCCC1c1ccc2c(c1)OCCO2 (configuration not stated) | · | -0.15
Nc1ncc(Br)cc1S(=O)(=O)NCCc1ccccc1 | -0.94 | -0.15
CC(=C\c1ccccc1)/C=C1/SC(=O)N(C(C)C)C1=O | 0.135 | 0.35
CC(=O)N1CCc2ccccc2C1 | 0.97 | 0.15
N#Cc1c(N2CCCC2)nc(-c2ccccc2)c2c1CCCC2 | 3.66 | -0.25
CS(=O)(=O)c1ccc(C#N)cc1 | -0.985 | 2.55
c1ccc(CCCn2cnc3ccccc32)cc1 | · | -0.95
COc1ccc(-n2c(SC3CCOC3=O)nc3ccccc32)cc1 (configuration not stated) | · | -0.05
Cc1cc(NCC(=O)Nc2ccc(N3CCOCC3)cc2)ccc1Br | · | -0.75
O=c1[nH]ncc(NCC2CCCO2)c1Cl (configuration not stated) | 0.09 | -0.7
COC(=O)C(C)N1C(=O)S/C(=C/c2cccn2C)C1=O (configuration not stated) | -1.49 | -0.45
Cc1ccc(NC(=S)C2=C(O)c3sccc3N(C)S2(=O)=O)cc1 | -1.94 | ·
Cc1cccc(N2CCN(c3cccc(C)c3)C2c2cccc([N+](=O)[O-])c2)c1 | 0.04 | ·
O=C(/C=C/c1cccs1)N(CC1CCCO1)C1CCS(=O)(=O)C1 (configuration not stated) | · | -0.1
CN(Cc1cccnc1)C(=O)CC(CC(=O)C1CC1)c1ccc(Br)cc1 (configuration not stated) | 0.305 | ·
CCOC(=O)C1CCCN(C(=O)CCc2nc3ccccc3s2)C1 (configuration not stated) | · | 0.05
COc1cccc(C2N(c3ccccc3)N=C(C(C)=O)N2c2ccc(C)c(C)c2)c1OCc1ccccc1 (configuration not stated) | -0.3 | ·
Cc1cc(C)nc(SCC(=O)N2CCc3cc(S(C)=O)ccc32)n1 (configuration not stated) | -0.225 | ·
CS(=O)(=O)c1ccc(CC(=O)NCC2CCCO2)cc1 (configuration not stated) | -0.45 | ·

Screening data deposited in PubChem by ICCB-Longwood Screening Facility, Harvard Medical School.
